RanGTP-Imp inh = inhibitors of RanGTP-importin-beta interaction, primary screen, biochemical, FRET, CFP-Ran, YFP-importin-beta, homogeneous; cell-free CFP-Ran/YFP-importin-beta FRET ratio; inhibition, % (test concentration not listed); 1.1% of 300,000 active;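 active = most replicates above 15%; inconclusive = exactly half above 15%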;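 note: 0% = DMSO wells and 100% = Ran loaded with GDP instead of GTP; wells of about 40 µL received 100 nL stock; the first replicate is given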
A1 inh = caspase 3/7 activation in MEF A1-2A-BIM cells, primary screen, A1 inhibitor project, cell-based, luminescence, HTS. Caspase-Glo 3/7 luminescence, 3 h; percent of clofoctol response, vehicle zero. caspase activation, % (test concentration not listed). 0.066% of 330,000 active. AID 2462, 2010;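 active = over half of replicate activation scores above 10%, or exactly half above 10 with the replicate mean above 10; inconclusive = replicate mean below 10 yet half the replicates above 10; inactive = over half of replicates below 10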;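 note: wells of about 30 µL received 50 nL stock; many hits fall short of the cut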
Calb FLC = C. albicans growth inhibition with fluconazole, primary screen, CaCi-2 strain, Alamar Blue fluorescence | C. albicans CaCi-2 (fluconazole-resistant clinical isolate) + fluconazole, 48 h | growth inhibition, % (no concentration beside the values) | AID 1979, 2009 | 0.57% of 300,000 active;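 active = most replicates above 75%; inconclusive = exactly half above 75%; inactive = most below 75%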;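 note: all wells also contain fluconazole at 8 µg/ml as a sub-toxic cotreatment; 0% = median of DMSO wells and 100% = median of geldanamycin control wells; wells of about 8 µL received 7.5 nL stock; the first replicate is given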
AF4-AF9 inh = inhibitors of AF4 peptide binding to AF9, primary screen, biochemical, AlphaScreen, biotin-AF4 peptide, FLAG-AF9, single point. Protein AF-9 (Homo sapiens), P42568. inhibition, % at 10 µM. 0.47% of 350,000 active;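 active = every replicate reaching a set inhibition limit, whatever the replicate mean, cut at about 25% in these data; inconclusive = mean inhibition reaches that limit but some replicates miss it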;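 note: 0% = plate neutral control median and 100% = total signal loss; the record names both 10 and 1 µM as test concentration; the first replicate is given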
Target sequence (P42568 whole entry, looked up): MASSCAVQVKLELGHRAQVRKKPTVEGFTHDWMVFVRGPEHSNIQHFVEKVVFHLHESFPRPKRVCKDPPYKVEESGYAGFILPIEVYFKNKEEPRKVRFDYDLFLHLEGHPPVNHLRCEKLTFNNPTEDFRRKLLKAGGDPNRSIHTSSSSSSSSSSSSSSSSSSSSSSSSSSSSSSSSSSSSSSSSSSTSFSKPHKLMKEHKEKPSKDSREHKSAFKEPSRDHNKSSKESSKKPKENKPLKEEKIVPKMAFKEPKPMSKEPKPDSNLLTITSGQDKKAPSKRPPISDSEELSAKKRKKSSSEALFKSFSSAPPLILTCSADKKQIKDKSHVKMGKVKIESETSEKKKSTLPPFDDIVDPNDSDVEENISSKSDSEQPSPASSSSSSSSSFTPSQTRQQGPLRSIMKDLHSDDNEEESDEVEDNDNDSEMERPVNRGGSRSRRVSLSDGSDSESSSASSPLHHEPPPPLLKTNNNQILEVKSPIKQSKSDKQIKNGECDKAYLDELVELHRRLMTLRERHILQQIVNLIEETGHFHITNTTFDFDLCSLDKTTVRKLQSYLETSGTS
Vif TR-FRET = inhibitors of Vif binding to APOBEC3G peptide, primary screen, biochemical, TR-FRET, GST-Vif 1-94, biotin-A3G peptide, dose response retest (AID 1117319). Virion infectivity factor (Human immunodeficiency virus type 1 group M subtype B (isolate …. TR-FRET GST-Vif / biotin-A3G peptide binding; higher % means a stronger effect; test concentration not given here; strong numbers were not always called active. inhibition, %; hits with a dose series show IC50 in µM. 0.57% of 260,000 active;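 active = above the screen mean plus three standard deviations and confirmed in dose response; inconclusive = results disagree or hit not tested in dose response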;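 note: Vif residues 1-94 fused to GST binding biotinylated APOBEC3G peptide 110-148; 0% = full assay without inhibitor and 100% = GST in place of GST-Vif; retest series ran down from 100 µM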
T cruzi repl = inhibitors of intracellular T. cruzi growth, primary screen, luminescence, NIH3T3 host cells; 1.4% of 300,000 active; inhibition, % (test concentration not listed); AID 1885, 2009; T. cruzi beta-gal in NIH3T3, 90 h;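 active = mean inhibition across valid replicates above about 55%, limit read from the data; inconclusive = mean below that limit but half or more replicates reach it; inactive = mean below it, under half of replicates reach it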;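 note: signal also drops with host cell toxicity which is not excluded here; 0% = plate median of DMSO wells and 100% = zero luminescence signal; higher percent means less beta-gal luminescence so fewer parasites; stock transfer was 50 nL into about 50 µL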
Beta apoptosis = inhibitors of cytokine-induced beta cell apoptosis, primary screen, luminescence | INS-1E cytokine-induced death, ATP luminescence, 48 h; percent of positive-control rescue, neutral wells zero | protection from apoptosis, % (no concentration beside the values) | 0.8% of 300,000 active;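 active = all replicates at 75% or more, or half of them and the mean; inconclusive = half reach 75% but not the mean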;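 note: 0% = cytokine-treated negative control wells and 100% = positive control rescue; higher means more ATP so stronger rescue from cytokine killing; wells of about 40 µL received 100 nL stock; the first replicate is given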
rRNA inh HTS = reduced GFP signal of wild-type E. coli, primary screen, bacterial rRNA inhibitor project, GFP/RFP fluorescence, OD600, single point | E. coli WT GFP vs humanized-ribosome RFP mutants, 24 h; hits give low values; DMSO median 0, no signal -100 | GFP signal change (wild-type ribosome), % (no concentration beside the values) | 1.6% of 350,000 active | AID 720706, 2013;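 active = significant combined selectivity score with lowered wild-type GFP, culture density cut under 30%, mutant RFP and density less affected; inactive = any of these conditions unmet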; note: one replicate is shown; some compounds called inactive have numbers as strong as hits
rRNA inh HTS OD600 = recorded beside rRNA inh HTS, whose call it bears; OD600 change, %; measured here: OD600 growth;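 optical density of the mix in the first replicate; 0 = DMSO median and -100 = no signal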
rRNA inh HTS RFP = also measured in rRNA inh HTS; calls as there; RFP signal change, %; measured here: RFP humanized mutant strains;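 first replicate; 0 = DMSO median and -100 = no signal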
Active calls of the source: *; ? = inconclusive; nt = not tested or not shown; & = joins results of further samples. This is a subset (hit frequency here may not be typical).

SMILES	RanGTP-Imp inh	A1 inh	Calb FLC	AF4-AF9 inh	Vif TR-FRET	T cruzi repl	Beta apoptosis	rRNA inh HTS	rRNA inh HTS OD600	rRNA inh HTS RFP
O=C(N/N=C/c1ccc(Br)o1)c1ccc2c(c1)OCCO2	3.5	-2.9	5	nt	-5%	19	0	nt	nt	nt
CCNC(=S)NNC(=O)c1csc(CC)c1	-2.1	-0.5	3	nt	0%	-9	nt	nt	nt	nt
CCN(C(=O)CSc1nc(C)nc2sc3c(c12)CCC3)C1CCS(=O)(=O)C1 (stereo not given)	nt	2.9	nt	-11	nt	nt	-9	2	-1	2.0
S=c1[nH]nc(COc2ccc(Cl)cc2Cl)n1-c1ccccc1	-3.0	-0.4	-9	-4.6	8%	9	nt	-25	-39	-2.0
COc1ccccc1N(CC(=O)NCC(C)C)S(=O)(=O)c1cccs1	8.7	0.7	-11	nt	-4%	1	2	nt	nt	nt
CCOc1ncccc1C(=O)NCc1ccc(C)cc1	?	0.8	5	-6.3	nt	-6	-1	3	3	3.1
Cn1c(=O)[nH]c2c(nc(-c3ccc(Cl)cc3)n2C)c1=O	18*	-2.4	0	1.8	-6%	1	0	18	16	-0.6
Cc1ccc(-c2cc(-c3ccccc3)no2)cc1	?	-11	-5	1.5	nt	-10	-6	10	18	-6.6
CC(C)c1c(Cl)c(O)c(-c2ccccc2)c(=O)n1-c1ccc(F)cc1	-2.3	-1.1	0	nt	-2%	-18	2	nt	nt	nt
CC(CNS(=O)(=O)c1cc(Cl)ccc1Cl)CN(C)C (stereo not given)	-5.3	0.1	-9	nt	2%	6	-7	nt	nt	nt
O=C(CSc1nc2ccccc2c(=O)n1-c1ccc(F)cc1)NCc1ccco1	-2.8	1.0	-8	-22	10%	-3	-4	-3	-3	-0.6
Cc1ccc(C)c(N2CCN(C(=O)c3ccc(Cl)c(NC4=NC5CS(=O)(=O)CC5S4)c3)CC2)c1 (stereo not given)	8.8	-0.4	14	-0.6	nt	14	-4	-9	-22	1.6
COCCn1nnnc1SCC(=O)c1ccc(F)cc1	0.8	?	2	nt	?	10	-8	nt	nt	nt
CCC(=O)Nc1c(C(=O)N2CCN(c3ccccn3)CC2)cnn1-c1ccc(C)cc1	-1.1	0.6	4	-53	5%	16	4	1	0	-1.7
Cc1ccccc1Cn1nc(C)c(NC(=O)c2nc3n(n2)C(C(F)F)CC(C)N3)c1C (stereo not given)	-2.9	1.5	0	nt	-2%	8	3	1	-1	-0.4
Cc1occc1-c1nnc(SCC(=O)N2CCc3ccccc32)o1	0.4	?	45	nt	-3%	-8	1	nt	nt	nt
O=C(CCCC(=O)N(c1ccc2c(c1)OCCO2)C(C(=O)NC1CCCCC1)c1ccc(F)cc1)Nc1ccccn1 (stereo not given)	?	1.1	12	nt	29%	-12	5	nt	nt	nt
COc1ccc([C@H]2CC(=O)C=C(c3ccc4ccccc4c3)C2)cc1OC	nt	0.7	nt	11	nt	nt	-5	-17	-15	-8.3
COc1cccc2c(=O)cc(C)n(CC(=O)Nc3ccccc3C)c12	-1.4	-0.4	1	nt	-7%	4	2	nt	nt	nt
Cc1ccc(NC(=O)N2CCCc3ccccc32)cc1	?	-0.8	-13	-2.3	nt	13	-2	3	6	1.8

No new results follow: 8 of the compounds above.
SMILES	RanGTP-Imp inh	A1 inh	Calb FLC	AF4-AF9 inh	Vif TR-FRET	T cruzi repl	Beta apoptosis	rRNA inh HTS	rRNA inh HTS OD600	rRNA inh HTS RFP
O=C(N/N=C/c1ccc(Br)o1)c1ccc2c(c1)OCCO2	3.5	-2.9	5	nt	-5%	19	0	nt	nt	nt
CCNC(=S)NNC(=O)c1csc(CC)c1	-2.1	-0.5	3	nt	0%	-9	nt	nt	nt	nt
CCN(C(=O)CSc1nc(C)nc2sc3c(c12)CCC3)C1CCS(=O)(=O)C1 (stereo not given)	nt	2.9	nt	-11	nt	nt	-9	2	-1	2.0
S=c1[nH]nc(COc2ccc(Cl)cc2Cl)n1-c1ccccc1	-3.0	-0.4	-9	-4.6	8%	9	nt	-25	-39	-2.0
COc1ccccc1N(CC(=O)NCC(C)C)S(=O)(=O)c1cccs1	8.7	0.7	-11	nt	-4%	1	2	nt	nt	nt
CCOc1ncccc1C(=O)NCc1ccc(C)cc1	?	0.8	5	-6.3	nt	-6	-1	3	3	3.1
Cn1c(=O)[nH]c2c(nc(-c3ccc(Cl)cc3)n2C)c1=O	18*	-2.4	0	1.8	-6%	1	0	18	16	-0.6
Cc1ccc(-c2cc(-c3ccccc3)no2)cc1	?	-11	-5	1.5	nt	-10	-6	10	18	-6.6

More records follow.
SMILES	RanGTP-Imp inh	A1 inh	Calb FLC	AF4-AF9 inh	Vif TR-FRET	T cruzi repl	Beta apoptosis	rRNA inh HTS	rRNA inh HTS OD600	rRNA inh HTS RFP
COCCCNC(=O)c1ccc(S(=O)(=O)c2ccc(C)cc2)c(NC(C)=O)c1	0.0	1.5	0	-1.6	0%	-11	nt	4	7	1.8
Cc1ccc(OCCCn2cc(C#N)c3ccccc32)cc1	2.4	0.6	-5	nt	-10%	12	-6	nt	nt	nt
Cc1ccc(N2CC(C(=O)NCCS(=O)(=O)N3CCN(c4ccc(F)cc4)CC3)CC2=O)cc1 (stereo not given)	4.3	-1.9	-3	-6.5	-4%	-19	nt	-12	0	-6.7
O=C(CN(c1cccc([N+](=O)[O-])c1)S(=O)(=O)c1ccccc1)N(Cc1ccccc1)Cc1ccccc1	-2.0	0.4	-6	nt	nt	15	4	nt	nt	nt
C=CCNc1c2c(nc3nnnn13)CCCC2	1.7	-1.2	14	0.5	nt	-18	5	10	6	-1.4
Cc1ccc(C(=O)Nc2ccc(-c3csc(C)n3)cc2)cc1	-1.8	-0.8	1	-5.2	8%	-2	-4	10	15	11
O=C1C(Cc2ccccc2)Nc2ncnc(N3CCN(c4ccccc4)CC3)c2N1Cc1ccc(Br)cc1 (stereo not given)	nt	0.0	nt	-0.6	nt	nt	2	-11	-7	5.3
CCOc1ccc(NC(=O)CNC(=O)COc2ccccc2)cc1	6.5	-0.1	2	nt	12%	2	-5	nt	nt	nt
Cn1c(SCC(=O)Nc2ccc(F)cc2)nnc1C1CC1	0.6	0.6	-7	-1.5	nt	-8	-1	13	5	1.2
COc1ccc(CC(=O)NCc2nnc(SCC(=O)Nc3cccc(F)c3)n2C)cc1	-3.3	0.5	8	-4.7	-2%	-1	-5	7	10	1.8
CCCCN(C(=O)c1ccc(S(=O)(=O)N(C)C)cc1)c1ccccc1	1.3	0.0	5	-14	4%	24	9	-22	-36	-13
NS(=O)(=O)c1ccc(CCNC(=O)c2ccc(OCC3CCCO3)cc2)cc1 (stereo not given)	-1.1	-0.2	-6	-11	-10%	-29	1	5	3	0.9
O=C(CCN1C(=O)c2ccccc2C1=O)Nc1ccc(-c2cn3ccsc3n2)cc1	4.9	-1.7	3	nt	-4%	-15	0	nt	nt	nt
C=CCN(CC(=O)NC1CCCC1)C(=O)C(=O)Nc1ccc2c(c1)OCCO2	-1.7	0.0	-6	-2.3	-8%	-6	-1	3	8	-0.8
O=C1CC2(CCCCC2)Oc2ccc(F)cc21	1.3	0.5	-3	nt	nt	-10	-5	nt	nt	nt
Cc1ccc(CN2CCN(CC(=O)O)C2=O)cc1	-1.7	0.4	8	0.2	3%	0	-4	9	13	-2.9
CN1C(=O)N(C)C2(CC1(C)C)CC(C)(C)N(C)C(=O)N2C	-2.1	0.9	-5	nt	22%	-19	4	nt	nt	nt
Cc1nc(N)nc(N/N=C/c2c(F)cccc2Cl)n1	1.3	-2.7	-5	-1.2	-8%	-13	nt	7	3	-1.5
Cc1ccc(OCc2cc(C(=O)Nc3ccccc3)oc2C)cc1	4.4	0.1	-17	nt	1%	14	0	nt	nt	nt
COc1ccccc1OCc1cc(C(=O)N2CC3C[C@@H]4CC2C[C@H](C3)C4)no1	-0.2	-1.0	-12	-2.0	nt	18	6	-29	-41	-4.2
COc1ccccc1OCC(=O)Nc1c2c(nn1-c1ccc(C)cc1)CS(=O)(=O)C2	-0.6	0.6	0	-1.8	0%	6	-7	5	15	-2.1
O=C(Cc1ccc2c(c1)OCCO2)N1CCN(S(=O)(=O)c2cccc(Cl)c2Cl)CC1	1.9	-1.4	16	30*	2%	2	-5	-14	-10	-4.5
COc1ccccc1Nc1nc(NCCO)nc(N2CCCC2)n1	-1.1	0.7	-13	-3.9	nt	-11	-4	3	-4	-4.4
COc1cc(CC(=O)N(C)CC(=O)Nc2cc(C)ccc2C)cc(OC)c1OC	-0.6	1.5	-1	1.0	5%	-9	-3	6	3	0.1
COc1ccccc1NC(=O)O/N=C(\N)c1ccccc1	?	0.2	-4	-2.6	6%	0	1	2	9	0.0
COc1ccccc1NC(=O)c1ccccc1NC(=O)c1cc(Cl)ccc1NC(=O)c1ccco1	-0.2	0.0	18	nt	-6%	3	21	11	7	10
COc1ccc(C(=O)c2ccccc2Cl)cc1	7.2	-0.5	-6	nt	-5%	-4	nt	nt	nt	nt
COc1ccc(C(=O)NC(=S)N2CCC(C)CC2)cc1Br	4.4	0.1	-8	-1.2	nt	-6	-2	-18	-7	1.3
CC(C)c1ncc(S(=O)(=O)c2ccc(C(F)(F)F)cn2)c(N)n1	2.1	0.2	-4	0.9	-4%	3	2	10	-3	0.1
O=C(NNC1CC(=O)N(c2ccccc2)C1=O)c1cccnc1 (stereo not given)	?	-0.8	-5	-4.1	nt	-13	-3	11	16	-1.7
N=c1n(CCN2CCCCC2)c2ccccc2n1CC(O)COc1ccccc1 (stereo not given)	3.6	-0.1	-2	nt	-11%&-11%	10	8	nt	nt	nt
COc1ccc(/C=C2\N=C(SC)N(C)C2=O)cc1	0.1	-2.8	-12	-18	4%	-5	-1	0	3	-5.9
Cc1ccccc1CNS(=O)(=O)c1c(C(=O)N2CCCCC2)c(C)n(C)c1C	-0.3	0.1	-2	3.2	1%	-1	nt	2	0	-1.9

Source: PubChem BioAssay (several laboratories)
